High-throughput results from PubChem.
Six1-Eya2 inh: qHTS Assay for Inhibitors of the Six1/Eya2 Interaction; Homeobox protein SIX1 (Homo sapiens) + Protein phosphatase EYA2 (Homo sapiens), …; AlphaScreen GST-Six1/His-Eya2 binding, biochemical; hits give low values; control for the full effect not named in the record; activity change, % (test concentration not listed); 0.56% of 360,000 active; AID 651725, 2012; in the data active = activity change below about -65%; inconclusive = about -30% to -65%; inactive = above about -30%; also: % is scaled to controls: 0 for no effect and ±100 for the full control effect; compound concentration not given in the record
Target sequence (O00167 whole entry, looked up): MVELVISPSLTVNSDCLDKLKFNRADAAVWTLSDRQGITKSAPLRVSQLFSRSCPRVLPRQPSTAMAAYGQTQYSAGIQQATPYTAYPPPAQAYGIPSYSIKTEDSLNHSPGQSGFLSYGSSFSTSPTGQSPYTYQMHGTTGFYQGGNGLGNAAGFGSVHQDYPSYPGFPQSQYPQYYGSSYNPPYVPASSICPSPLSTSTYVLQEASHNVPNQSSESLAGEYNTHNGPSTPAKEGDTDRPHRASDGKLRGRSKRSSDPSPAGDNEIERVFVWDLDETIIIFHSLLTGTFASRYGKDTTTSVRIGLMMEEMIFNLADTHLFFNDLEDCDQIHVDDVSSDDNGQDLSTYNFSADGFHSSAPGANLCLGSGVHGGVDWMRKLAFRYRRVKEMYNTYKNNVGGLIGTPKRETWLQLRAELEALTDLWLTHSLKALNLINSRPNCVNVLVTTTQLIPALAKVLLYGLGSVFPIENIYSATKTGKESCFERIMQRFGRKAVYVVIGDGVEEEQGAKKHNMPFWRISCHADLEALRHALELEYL
Target sequence (Q15475 whole entry, looked up): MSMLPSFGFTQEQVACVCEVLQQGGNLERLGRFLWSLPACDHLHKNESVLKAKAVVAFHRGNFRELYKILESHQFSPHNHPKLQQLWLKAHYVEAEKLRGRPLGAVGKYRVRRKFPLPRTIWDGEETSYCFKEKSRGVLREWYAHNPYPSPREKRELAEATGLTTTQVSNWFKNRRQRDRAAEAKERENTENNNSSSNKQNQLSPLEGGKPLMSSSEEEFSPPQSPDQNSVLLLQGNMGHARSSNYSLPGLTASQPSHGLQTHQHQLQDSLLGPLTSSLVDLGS
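Compounds are tested against tagged Six1 and Eya2 proteins bridged by glutathione donor and nickel acceptor beads; after a one-hour incubation at 37 °C without light, AlphaScreen emission is recorded.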
D2 potentiator: Beta-Arrestin HTS for Positive Allosteric Modulators of the Human D2 Dopamine Receptor: Potentiators; D(2) dopamine receptor (Homo sapiens), P14416; DiscoveRx D2 beta-arrestin cells, luminescence, 90 min; 100% = 57 uM dopamine signal; potentiation, % (no concentration beside the values); 0.23% of 360,000 active; AID 624464, 2012; active = potentiation of 50% or more; inconclusive = 30% to 50%; inactive = 30% or less;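 also: compound concentration not given in the record; tested on top of an EC20 dose of dopamine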
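PathHunter D2 cells, attached overnight at 37 deg C, received compound in DMSO plus dopamine at EC20 (50 nM final) for 90 min at 37 deg C. Beta-arrestin recruitment was read as luminescence after 1 h with detection reagent at ambient temperature.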
CtBP-E1A blk: qHTS Assay for Inhibitors of the CtBP/E1A Interaction. 0.49% of 340,000 active. AlphaScreen GST-E1A/His-CtBP binding, 1536-well; hits give low values; control for the full effect not named in the record. CtBP / adenovirus E1A interaction (AlphaScreen). activity change, % (no concentration beside the values); in the data active means activity change below about -65%; inconclusive means about -30% to -65%; inactive means above about -30%; also: % is scaled to controls: 0 for no effect and ±100 for the full control effect; compound concentration not given in the record
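In 5 uL wells, 23 nL compound meets equimolar GST-E1A and His-CtBP (5X stock 125 nM each) for 2 h, 37 °C. Beads (5X, 50 ug/mL) then 1 h, 37 °C, dark.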
gsp antag: qHTS for Antagonists of gsp, the Etiologic Mutation Responsible for Fibrous Dysplasia/McCune-Albright Syndrome: qHTS | gsp-mutant cells, cAMP HTRF, 30 min; control for the full effect not named in the record | Potency, µM (doses to about 76.9 µM), for the others: at the top dose activity change, negative = inhibition, hits mostly inhibitors | 0.4% of 340,000 active | AID 624288, 2012; active = falling curve of any shape with a large fitted effect; inconclusive = falling curve, mostly with a smaller effect; inactive = flat or rising curve; cell line not stated here;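 also: intracellular cAMP measured with PDE inhibitor Ro 20-1724 present during compound exposure; potency is read from the fitted curve at half-maximal effect; % is scaled to controls: 0 for no effect and ±100 for the full control effect; nearly all actives have a fitted effect of over 65% in size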
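G418-selected cells were plated in DMEM/10% FBS for 16-24 h at 37C, then treated with compounds plus the PDE inhibitor […] (300 uM solution added) for 30 min at 37C. Intracellular cAMP was measured by HTRF after 30 min lysis at room temperature.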
D2 ag: Beta-Arrestin HTS for Positive Allosteric Modulators of the Human D2 Dopamine Receptor: Agonists | D(2) dopamine receptor (Homo sapiens), P14416 | DiscoveRx PathHunter D2 beta-arrestin, luminescence, 90 min; 100% = 57 uM dopamine signal | activation, % (concentration not given with the values) | 0.084% of 360,000 active | AID 624465, 2012; in the data active = activation above about 40%; inconclusive = about 15% to 40%; inactive = below about 15%; also: compound concentration not given in the record; the text of the record calls up to 30% inactive
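DiscoveRx PathHunter D2 beta-arrestin cells (2,100/well) attached overnight, then compound-stimulated 90 min at 37 C in HBSS/10 mM HEPES/0.1% Tween-20 buffer; beta-galactosidase complementation read by luminescence after 1 h at ambient temperature. Dopamine 57 uM final (EC100) as control.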
gsp ag: qHTS for Agonist of gsp, the Etiologic Mutation Responsible for Fibrous Dysplasia/McCune-Albright Syndrome: qHTS. gsp mutant cells, cAMP HTRF, 30 min; control for the full effect not named in the record. Potency, µM (top dose mostly 76.9 µM), inactives show at the highest dose activation (cAMP increase), actives largely listed as activators. 0.13% of 340,000 active; active = well fitted activation curve with a large enough effect; inconclusive = small, poorly fitted or top-dose-only effect, or another doubt; inactive = no such curve, though single readings can be large or run the other way; cell line not stated here;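 also: phosphodiesterase inhibitor Ro 20-1724 added with compounds to block cAMP breakdown; potency is read from the fitted curve at half-maximal effect; nearly all actives have a fitted effect of over 60% in size; about a fifth of the inactives were tested at one dose only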
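Cells stably selected in G418 were plated at 2000/well, grown 16-24 hr, then given compounds in DMSO with the PDE inhibitor […] (300 uM solution added) for 30 min at 37C; cAMP was read by HTRF.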
Active calls of the source: *; ? = inconclusive; · = no result given; [ ] = dose if it differs, or a comment.

Results follow in this order: gsp antag, CtBP-E1A blk, D2 ag, D2 potentiator, gsp ag, Six1-Eya2 inh
- COC(=O)c1cc2occc2n1Cc1nc(-c2ccccc2C)oc1C
 : -3%, 3, -3.3, -7, -15%, 8
- Cc1occc1-c1nnc(-c2cc([N+](=O)[O-])cc([N+](=O)[O-])c2)o1
 : 3%, -25, ?, 66*, ?, -25
- COc1ccc(-c2cc(C(=O)Nc3ccccc3SC)no2)cc1
 : 1%, 15, -1.7, -1, ?, 0
- O=C(Nc1ccccc1)C1C(c2ccccc2)C1(Cl)Cl (stereo not given)
 : 2%, 11, 5.5, -4, 11%[15.4 µM], 1
- Cc1ccccc1Cn1ccc(NC(=O)CCSc2nc(-c3ccco3)cc(C(F)(F)F)n2)n1
 : -9%, -1, -1.3, -32, -31%[inhibitor], -13
- COC(=O)Nc1ccc(S(=O)(=O)NNC(=O)c2c(O)c3ccccc3n(C)c2=O)cc1
 : -7%, 0, -1.5, -3, 18%, 0
- Cc1nn(C)cc1CNC(=O)c1cc2n(n1)C(C(F)(F)F)CC(c1cccs1)N2 (stereo not given)
 : 10%, 5, 0.2, -22, 24%, 2
- CCOC(=O)c1sc(NC(=O)CCN2CCOCC2)c(C(=O)OCC)c1C
 : 17%, 8, -2.4, 1, 4%, 7
- O=C(NN1C(=O)c2ccccc2NC1c1ccco1)c1ccccc1 (stereo not given)
 : ·, 13, -1.2, -3, 14%[15.4 µM], 7
- Cc1ccc(NC(=O)CN(C)C(=O)c2nn(C)c(=O)c3ccccc23)cc1
 : -3%, 1, -2.6, -15, -14%, 0
- Cc1c(C(=O)N2CCC(n3nccc3NC(=O)C3CC3)CC2)[nH]c2ccc(Cl)cc12
 : 0%, 1, -4.6, -12, 38%, 0
- CNc1nc2c(C)cccn2c(=O)c1C=NCc1ccccc1
 : 10%, 3, 1.3, -6, -8%, -9
- N#Cc1ccccc1NS(=O)(=O)c1cc2c3c(c1)CCC(=O)N3CCC2
 : -12%, 9, -2.5, -3, 76%[15.4 µM], 2
- CC1CC(C)CN(S(=O)(=O)c2ccc3c(c2)oc(=O)n3CC(=O)N2CCOCC2)C1 (stereo not given)
 : 10%, 6, -2.0, -3, -33%[inhibitor], 6
- O=C(Nc1ccc(S(=O)(=O)N2CCOCC2)cc1)c1ccc2c(c1)OCO2
 : -1%, -24, -1.6, -3, 11%[15.4 µM], -18

Additional structures:
Results follow in this order: gsp antag, CtBP-E1A blk, D2 ag, D2 potentiator, gsp ag, Six1-Eya2 inh
- COc1cccc(OC)c1C(=O)Nc1cccc(C(=O)Nc2cccc(C(=O)O)c2)c1
 : -13%, 4, 2.4, 0, -17%, 3
- O=[N+]([O-])c1ccc(N2CCOCC2)cc1SCc1ccco1
 : -5%, -29, -1.6, -23, 0%, -26
- C=CCN=C1S/C(=C\c2ccc(N(C)C)cc2)C(=O)N1CC=C
 : -9%, 15, -4.6, -1, ?, -3
- COc1c(Br)cc(Br)cc1/C=N/NC(=O)c1ccncc1
 : ·, -5, 2.4, -32, 12%[15.4 µM], -7
- CCC(CC)c1nc2ccccc2c(=O)[nH]1
 : 3%, ·, -5.7, -3, -56%[inhibitor], -1
- COc1ccc(C2C(C(=O)Nc3cc(OC)c(OC)c(OC)c3)c3ccccc3C(=O)N2C)cc1 (stereo not given)
 : 25%, -2, 0.7, 2, 7%[15.4 µM], -4
- C=CCN1C(=O)c2ccc(C(=O)N(CC)CC(=O)Nc3ccc(OC)cc3)cc2C1=O
 : -7%, -1, 0.0, 2, 20%[15.4 µM], 2
- Cc1ccc(Oc2nc(-c3ccccc3)ncc2S(C)(=O)=O)cc1
 : 39%[activator], 9, -3.2, 7, -17%, 5
- CC(=O)N1CCN(S(=O)(=O)c2cccc(C(=O)OCc3ccc(F)cc3)c2)CC1
 : ·, 12, 0.4, -7, -5%, 5
- COc1cc(OC)c(C(=O)Nc2cccc(C(C)=O)c2)cc1OC
 : -2%, -22, -11, -21, 14%, ?
- CCCCN(C(=O)C1CC(=O)N(c2ccc(CC)cc2)C1)c1c(N)n(CCC)c(=O)[nH]c1=O (stereo not given)
 : -9%, 2, -5.7, -31, ?, 27
- O=C1C=C(NCC2CCCO2)C2(CCCCC2)O1 (stereo not given)
 : -1%, 9, -1.4, -5, -6%, 2
- COc1ccc(OCC(=O)Nc2c3c(nn2C(C)(C)C)CS(=O)(=O)C3)cc1
 : -15%, 0, 7.3, 22, 3%[15.4 µM], 11
- CC(NC(=O)C1c2ccccc2Oc2ccccc21)C1CCCO1 (stereo not given)
 : -6%, 9, -0.4, -2, 29%, 3
- Cc1nc2c(OCc3ccc(C(F)(F)F)cc3)cccn2c1N(C)Cc1cccs1
 : ·, -3, -6.0, -27, ·, -8

Results in D2 potentiator, D2 ag and Six1-Eya2 inh (two entries from above):
mol | D2 potentiator | D2 ag | Six1-Eya2 inh
CC(=O)N1CCN(S(=O)(=O)c2cccc(C(=O)OCc3ccc(F)cc3)c2)CC1 | -7 | 0.4 | 5
CCCCN(C(=O)C1CC(=O)N(c2ccc(CC)cc2)C1)c1c(N)n(CCC)c(=O)[nH]c1=O (stereo not given) | -31 | -5.7 | 27

Carrying on:
Results follow in this order: gsp antag, CtBP-E1A blk, D2 ag, D2 potentiator, gsp ag, Six1-Eya2 inh
- CC(C)c1ccc(C2CC(=O)c3cnc(N4CCc5ccccc5C4)nc3C2)cc1 (stereo not given)
 : 5%, -6, 3.6, 5, -21%, 5
- COCCCNC(=O)Cc1c(C)c2c(cc(C)c3c(C(C)(C)C)coc32)oc1=O
 : -20%, 5, 7.1, 6, 1%, 1
- O=C(O)Cc1ccc(NC(=S)Nc2cccc(Cl)c2Cl)cc1
 : -4%, 49, 0.3, -1, -2%, 25
- O=C(COc1ccc(Cl)cc1[N+](=O)[O-])N1CCCCCC1
 : 5%, 9, -4.0, -1, 0%, 1
- O=C1CCN(C(=S)NCc2ccccc2)CC1
 : 5%, 4, 0.9, 4, -2%, 0
- CS(=O)(=O)N1CCN(C(=O)COc2ccc3ccccc3c2)CC1
 : 0%, 4, -2.7, 1, 12%[15.4 µM], 7
- O=S(=O)(Nc1nccs1)c1ccc(NS(=O)(=O)c2cccs2)cc1
 : 3%, -1, 0.7, -2, 6%, 0
- O=C(CCc1nc2ccccc2c(=O)[nH]1)NCc1cccc(Cl)c1
 : -1%, -1, -2.4, -15, 0%, 7
- O=C1CCCC2=C1C(c1cccc(Br)c1)n1nc(-c3ccco3)nc1N2 (stereo not given)
 : -14%, 2, -4.3, -2, 1%, -6
- CC1(C)CC(=O)C2=C(C1)Nc1cc3c(cc1C2c1ccc(F)cc1)OCO3 (stereo not given)
 : -20%, -8, -1.0, -12, 4%, -2
- CCn1cc(CN2CCC(C(=O)Nc3cccc(-c4cccc(Cl)c4)c3)CC2)c(C)n1
 : 7%, -6, 2.4, -17, ?, 0
- O=C1CCCN1C(=O)COc1ccc([N+](=O)[O-])cc1
 : 10%, 7, -5.8, -28, 21%[15.4 µM], 0
- COc1cccc(NC2=C(NCCO)C(=O)c3ccccc3C2=O)c1
 : ?, ?, 12, -5, -12%, ?
- COc1cc2c(cc1OC)CN(C(=O)CCCN1C(=O)c3ccccc3C1=O)CC2
 : -7%, -1, -1.3, 3, 17%, -3
- COc1ccc2nc3c(cc2c1)c(NC(=O)CC(C)C)nn3CC(C)C
 : -6%, -1, 6.7, -2, ?, 4

Ordered by value in gsp ag (lowest first): 3 from the list above
Results follow in this order: gsp antag, CtBP-E1A blk, D2 ag, D2 potentiator, gsp ag, Six1-Eya2 inh
- COc1cccc(NC2=C(NCCO)C(=O)c3ccccc3C2=O)c1
 : ?, ?, 12, -5, -12%, ?
- O=C(O)Cc1ccc(NC(=S)Nc2cccc(Cl)c2Cl)cc1
 : -4%, 49, 0.3, -1, -2%, 25
- CC1(C)CC(=O)C2=C(C1)Nc1cc3c(cc1C2c1ccc(F)cc1)OCO3 (stereo not given)
 : -20%, -8, -1.0, -12, 4%, -2

(next part)
Results follow in this order: gsp antag, CtBP-E1A blk, D2 ag, D2 potentiator, gsp ag, Six1-Eya2 inh
- O=C(/C=C/c1ccc(-c2ccccc2[N+](=O)[O-])o1)c1ccc(F)cc1
 : -18%, 8, -3.1, -18, ?, -12
- COc1ccc(NC(C)=O)cc1NC(=O)c1cccc(S(=O)(=O)N2CCc3ccccc32)c1
 : -20%, -3, 1.5, 0, -9%, -5
- Cc1ccc(F)cc1NC(=O)c1cnccn1
 : 4%, ·, 2.3, -4, -42%[inhibitor], 2
- COc1cccc(N2CCN(Cc3nc(N)nc(N4CCCc5ccccc54)n3)CC2)c1
 : -4%, -19, ?, 5, 1%, -26
- c1ccc(N/N=C(\Cc2ncc[nH]2)c2ccccc2)cc1
 : -12%, 9, -0.2, -7, 9%[15.4 µM], -3
- CC1CCN(C(=O)CSc2nc3c(c(=O)n2C)SCC3)CC1
 : -9%, 18, -5.2, -3, 1%, -10
- CC1(C)CC(=O)c2sc(NS(=O)(=O)c3ccc(Br)cc3)nc2C1
 : 1%, 3, -5.6, -2, 9%, 2
- COc1ccc(-n2c(=S)[nH]c3cc(C(=O)NCc4ccccc4)ccc3c2=O)c(OC)c1
 : 20µM*, -18, -2.6, -8, 9%[15.4 µM], -8
- CCN1CCN(c2ccc(S(=O)(=O)N3CCOCC3)cc2NC(=O)c2cccc([N+](=O)[O-])c2)CC1
 : 9%, 4, 1.9, -7, 25µM*, -3
- O=C(Nc1ccc(Cl)cc1)N1CCN(c2ccccc2)CC1
 : -26%, -4, 0.0, -10, 4%, -4
- Cc1ccc(S(=O)(=O)NCc2ccc(N3CCN(C(=O)OC(C)(C)C)CC3)cc2)cc1
 : -18%, -4, -0.8, -12, -2%, 0
- O=C(Nc1nc(-c2ccc(Cl)s2)cs1)c1ccccc1
 : -20%, 1, -2.0, -24, -11%, -1
- COc1ccc(CN2CCN(c3ncccn3)CC2)c(C)c1C
 : 7%, ·, 47*, 5, -29%, 9
- CCCCN(CC)c1nc(N)c(C#N)c(CC#N)c1C#N
 : 23%, -9, -1.7, 8, 64%, 0
- COc1ccc(N(CC(=O)NCC2CCCO2)S(=O)(=O)c2ccc(C)cc2)cc1OC (stereo not given)
 : -4%, -11, -1.3, -11, 20%, 2
- Cc1cccc(N2CCN(CCCNC(=O)c3ccc(NC(=O)C4=CSCCO4)cc3)CC2C)c1 (stereo not given)
 : -11%, ?, 1.2, 4, 6%[15.4 µM], -2
- O=C(NNS(=O)(=O)c1ccc(F)cc1)C1CCCCC1
 : 7%, -3, -2.8, 0, -37%[inhibitor], -5
